SARS PLP yeast = qHTS of Yeast-based Assay for SARS-CoV PLP; Potency, µM (doses to about 32.9 µM), for inactives: at the highest dose activity, positive = growth rescue; S. cerevisiae expressing SARS-CoV PLpro, growth rescue; control for the full effect not named in the record; 330,000 tested, 0.19% active; also: 0% is about no effect; nearly all actives have a fitted effect of over 55% in size; growth read by luminescence after 48 h
MARV entry inh = qHTS for inhibitors of binding or entry into cells for Marburg Virus; Marburg virus pseudotyped entry inhibition, cell reporter; control for the full effect not named in the record; about a third of the inactives were read at about 46 µM; Potency, µM (titrated, usually from 37.8 µM), without a hit: at the top dose activity change, negative = inhibition, usual class: inhibitors; 300,000 tested, 1.8% active; active = well fitted inhibition curve with a large enough effect; inconclusive = small, poorly fitted or top-dose-only effect, or effect the other way; inactive = flat fitted curve, though single readings scatter; tested in HEK293 cells; about a fifth of its hits are not listed in these tables; also: % is scaled to controls: 0 for no effect and ±100 for the full control effect; luciferase read-out
RE007 growth inh = qHTS Assay for Inhibitors of the HIV-1 protein Vpr; S. pombe RE007 Vpr strain, BacTiter-Glo ATP luminescence, 24 h; control for the full effect not named in the record; Potency, µM (series often up to 92.2 µM), for inactives: at the top dose activity change, negative = less growth; 360,000 tested, 0.21% active; active = well fitted falling curve with a large enough effect; inconclusive = small, poorly fitted or top-dose-only effect; inactive = no such curve, though single readings can be large or run the other way;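 also: % is scaled to controls: 0 for no effect and ±100 for the full control effect; nearly all actives have a fitted effect of over 50% in size; the assay follows cell death caused by Vpr and the record does not say whether a fall means rescue or toxicity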
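Fission yeast strain RE007, carrying one chromosomally integrated HIV-1 vpr copy, was seeded at OD 0.01 in PMG+AL medium with 23 nL pinned compound. After 24 h at 30 °C and 99% humidity, viability was read by BacTiter-Glo luminescence.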
NS1 function inh = qHTS Assay for Inhibitors of Influenza NS1 Protein Function; AID 2326, 2010; S. cerevisiae slowed by influenza A NS1, growth recovery by OD600; 270,000 tested, 0.4% active; Potency, µM (doses to about 46.1 µM), without a hit: at the top dose activity, positive = more growth; also: actives are rising curves; nearly all actives have a fitted effect of over 50% in size
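Compounds were scored for reversing the slow growth caused by influenza A NS1 in S. cerevisiae, measured by optical density at 600 nm. Assay medium contained 2% galactose at pH 6.0; NS1-free yeast of the same strain were the positive control.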
Lassa entry inh = qHTS for Inhibitors of binding or entry into cells for Lassa Virus | Lassa virus pseudotype entry inhibition, cell reporter; control for the full effect not named in the record | Potency, µM (series often up to 37.9 µM), for inactives: at the highest dose activity change, negative = inhibition, actives largely listed as inhibitors | 300,000 tested, 1.2% active | AID 540256, 2011; active means well fitted inhibition curve with a large enough effect; inconclusive means small, poorly fitted or top-dose-only effect, or effect the other way; inactive means flat fitted curve, though single readings scatter; tested in HEK293 cells; also: % is scaled to controls: 0 for no effect and ±100 for the full control effect; nearly all actives have a fitted effect of over 50% in size; luciferase read-out
2A StopGo = High Throughput Screening for Foot and Mouth Disease Virus Antivirals; human cells with a luciferase reporter of 2A StopGo recoding; control for the full effect not named in the record; Potency, µM (doses to about 57.9 µM), inactives show top-dose signal change, negative = less light; 410,000 tested, 1.2% active; active = well fitted falling curve with a large enough effect; inconclusive = small, poorly fitted or top-dose-only effect; inactive = no such curve, though single readings can be large or run the other way; tested in HEK293T cells; also: % is scaled to controls: 0 for no effect and ±100 for the full control effect; nearly all actives have a fitted effect of over 45% in size; luciferase light after 4 h
Cruzain inh Det = qHTS Assay for Promiscuous and Specific Inhibitors of Cruzain (with detergent); AID 1478, 2009; purified cruzain, Z-FR-AMC fluorescence, 0.01% Triton; Potency, µM, for the others: max response, negative = inhibition, hits mostly inhibitors; 200,000 tested, 0.43% active; active = well fitted curve in the direction sought with a large enough effect; inconclusive = small, poorly fitted or top-dose-only effect, or another doubt; inactive = no such curve, though single readings can be large; an effect the other way counts as inactive or inconclusive;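 also: plate controls were neutral wells for no effect and buffer without enzyme for full effect; nearly all actives have a fitted effect of over 40% in size; top concentration of the series not given in the record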
Target sequence (P25779 123-467 limits assumed): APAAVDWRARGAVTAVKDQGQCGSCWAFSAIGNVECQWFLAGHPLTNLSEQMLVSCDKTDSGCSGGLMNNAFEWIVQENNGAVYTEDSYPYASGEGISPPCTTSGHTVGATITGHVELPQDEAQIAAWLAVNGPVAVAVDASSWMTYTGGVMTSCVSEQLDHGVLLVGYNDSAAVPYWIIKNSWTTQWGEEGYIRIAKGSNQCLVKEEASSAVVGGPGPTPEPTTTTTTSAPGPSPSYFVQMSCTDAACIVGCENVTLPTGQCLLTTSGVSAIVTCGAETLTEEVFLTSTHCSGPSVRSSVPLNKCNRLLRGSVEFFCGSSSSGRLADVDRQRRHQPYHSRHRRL
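Purified cruzain (1.5 nM final) was preincubated with compounds for 15 min at room temperature in 100 mM sodium acetate pH 5.5, 5 mM DTT, 0.01% Triton X-100. Reaction started with 2 uM Z-FR-AMC; AMC fluorescence change over 60 s gave activity.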
Cruzain noTriton = qHTS Assay for Promiscuous and Specific Inhibitors of Cruzain (without detergent); Cruzipain (Trypanosoma cruzi), P25779; purified cruzain, Z-FR-AMC fluorescence, no detergent; Potency, µM, for inactives: max response, negative = inhibition, hits mostly inhibitors; 200,000 tested, 2.3% active; active = well fitted curve in the direction sought with a large enough effect; inconclusive = small, poorly fitted or top-dose-only effect, or another doubt; inactive = no such curve, though single readings can be large; an effect the other way counts as inactive or inconclusive;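 also: plate controls were enzyme without inhibitor for no effect and buffer without enzyme for full effect; nearly all actives have a fitted effect of over 40% in size; top concentration of the series not given in the record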
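Detergent-free condition (0.00005% Triton X-100) in acetate buffer pH 5.5 with DTT. 1.5 nM enzyme and compound were pre-mixed 15 min, then 2 uM Z-FR-AMC substrate added; reaction progress from fluorescence change between first and third reads (60 s).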
The depositor's hits bear a star; ? = inconclusive; · = not tested or not shown; & = joins results of further samples; [ ] = dose if it differs, or a comment. Unless noted, calls follow the shape of the dose curve; as a rule, active means well fitted rising curve with a large enough effect; inconclusive means small, poorly fitted or top-dose-only effect; inactive means no such curve, though single readings can be large or run the other way. Potency is read from the fitted curve at half-maximal effect. Rows were taken by chance; overall some 4.5% were active at least once.

SMILES	SARS PLP yeast	MARV entry inh	RE007 growth inh	NS1 function inh	Lassa entry inh	2A StopGo	Cruzain inh Det	Cruzain noTriton
COc1ccc(CCNC(=O)c2c(O)c3ccccc3[nH]c2=O)cc1OC	-1%	6%	9%	3%	28%	-21%	·	·
Cc1ccc(S(=O)(=O)N2CC(C)N(C(=O)N3CCOCC3)C2C)cc1 (stereo not given)	1%	10%[46.1 µM]	-7%	-3%	9%	7%	·	·
Cc1c(NC(=O)c2ccc3c(c2)OCO3)cccc1-c1nc2ncccc2o1	-11%	·	-12%	-19%	·	?	3.3%	3%
Cc1cccc(NC(=O)C2COc3ccccc3O2)n1 (stereo not given)	-2%	·	-26%	-33%	·	35%[activator]	·	·
CCOC(=O)c1ccc(NC(=O)c2cc(S(=O)(=O)N3CCOCC3)ccc2O)cc1	-6%	0%	6%	-8%	-17%	?	-8.9%	23%
COc1cc(-c2noc(C)c2-c2ccc3[nH]ccc3c2)cc(OC)c1OC	-20%	·	7%	-9%	·	?	·	·
Cc1cc(=O)oc2cc(OC(C)C(=O)Nc3ccc(N4CCCCC4)cc3)ccc12 (stereo not given)	-1%	1%	12%	15%	-1%	-8%	·	·
O=c1nc2n(Cc3ccccc3)c3ccccc3cc-2c(=O)[nH]1	18%	6%	·	9%	-1%	·	-5.2%	-1%
COc1ccc(-n2ncc3c(N4CCC(C)CC4)ncnc32)cc1	-7%	·	-13%	-42%	·	-38%	·	·
O=C(N/C(=C\c1ccc(F)cc1)C(=O)N1CCOCC1)c1ccccc1	1%	19%[46.1 µM]	0%	-6%	-22%	-6%	·	·
COc1ccc(-n2c(SCC(=O)Nc3ccccc3)nnc2-c2ccoc2C)cc1	·	?	4%	·	-20%	0%	·	·
O=C(COc1ccc2c3c(c(=O)oc2c1)CCC3)N1CCN(c2ccccc2)CC1	-2%	7%[46.1 µM]	9%	3%	9%[46.1 µM]	6%	·	·
COc1ccc(NS(=O)(=O)c2cccc(C(=O)NNC(=O)c3cc(C)oc3C)c2)cc1	14%	-16%	1%	6%	-13%	-4%	-1.6%	-6%
CCOC(=O)c1cc(C(C)=O)n2ccccc12	-10%	14%	-12%	-17%	0%	19%	-2.9%	1%
CC(C)OP(=O)(OC(C)C)C(NC(=O)c1cccc([N+](=O)[O-])c1)C(N)=O (stereo not given)	3%	-8%[46.1 µM]	2%	1%	15%	-20%	6.1%	19%
OCCN(CCO)c1ncnc2c1oc1ccc(Br)cc12	3%	7%	-5%	12%	-3%	14%	-7.2%	-7%
CCC(C)C(=O)Nc1nnc(SCC(=O)N2C(C)CCCC2C)s1 (stereo not given)	-5%	-12%[46.1 µM]	-21%	-6%	?	4%	·	·
C=CCn1c(C)cc(C(=O)CSc2nc3ccccc3c(=O)[nH]2)c1C	-9%	?	8%	-12%	?	?	-10%	-27%
Cc1ccc(-n2c(SCC(=O)Nc3c(C)cccc3C)nc(O)c(C)c2=O)cc1	·	1%[46.1 µM]	·	·	?	-16%	-1.9%	0%
Cc1oc2cc(O)ccc2c(=O)c1-c1nncn1-c1ccccc1	0%	19%[46.1 µM]	1%	8%	9%[46.1 µM]	3%	·	·

Reformatted: results already given.
SMILES | SARS PLP yeast | MARV entry inh | RE007 growth inh | NS1 function inh | Lassa entry inh | 2A StopGo | Cruzain inh Det | Cruzain noTriton
CCC(C)C(=O)Nc1nnc(SCC(=O)N2C(C)CCCC2C)s1 (stereo not given) | -5% | -12%[46.1 µM] | -21% | -6% | ? | 4% | · | ·
C=CCn1c(C)cc(C(=O)CSc2nc3ccccc3c(=O)[nH]2)c1C | -9% | ? | 8% | -12% | ? | ? | -10% | -27%
Cc1ccc(-n2c(SCC(=O)Nc3c(C)cccc3C)nc(O)c(C)c2=O)cc1 | · | 1%[46.1 µM] | · | · | ? | -16% | -1.9% | 0%
Cc1oc2cc(O)ccc2c(=O)c1-c1nncn1-c1ccccc1 | 0% | 19%[46.1 µM] | 1% | 8% | 9%[46.1 µM] | 3% | · | ·

Another view of part of the listing above:
Order of results: SARS PLP yeast	MARV entry inh	RE007 growth inh	NS1 function inh	Lassa entry inh	2A StopGo	Cruzain inh Det	Cruzain noTriton
CCC(C)C(=O)Nc1nnc(SCC(=O)N2C(C)CCCC2C)s1 (stereo not given)
→ -5%	-12%[46.1 µM]	-21%	-6%	?	4%	·	·
CCOC(=O)c1ccc(NC(=O)c2cc(S(=O)(=O)N3CCOCC3)ccc2O)cc1
→ -6%	0%	6%	-8%	-17%	?	-8.9%	23%
COc1cc(-c2noc(C)c2-c2ccc3[nH]ccc3c2)cc(OC)c1OC
→ -20%	·	7%	-9%	·	?	·	·
Cc1oc2cc(O)ccc2c(=O)c1-c1nncn1-c1ccccc1
→ 0%	19%[46.1 µM]	1%	8%	9%[46.1 µM]	3%	·	·

Later entries:
SMILES	SARS PLP yeast	MARV entry inh	RE007 growth inh	NS1 function inh	Lassa entry inh	2A StopGo	Cruzain inh Det	Cruzain noTriton
CC(=O)c1ccc(NC(=O)CC2Oc3ccc(C)cc3NC2=O)cc1 (stereo not given)	·	-6%[46.1 µM]	·	·	·	-11%	-0.9%	10%
CC(Sc1nncn1C)C(=O)Nc1ccccc1-c1ccccc1 (stereo not given)	7%	7%	-12%	-1%	7%	·	5.4%	0%
CC(C)NC(=O)C1CCN(C2CCN(CC3CC=CCC3)CC2)CC1 (stereo not given)	24%	?	2%	1%	0%[46.1 µM]	8%	·	·
C=C1CC(C)OC(c2ccccc2OCC(O)CN2CCCCC2)C1 (stereo not given)	-1%	?	3%	4%	-25%	-23%	-0.1%	19%
Brc1ccc(-c2ccc(CNCc3ccccn3)o2)cc1	3%	·	-12%	-2%	·	0%	·	·
CCOC(=O)c1c(NC(=O)C(Sc2ccccc2)c2ccccc2)sc(C(N)=O)c1C (stereo not given)	1%	-30%	1%	1%	?	?	-10%	-27%
Brc1ccc(-c2csc(N3CCCCCC3)n2)cc1	-3%	21%[46.1 µM]	0%	20%	24%[46.1 µM]	2%	·	·
O=[N+]([O-])c1ccc(/C=N/NC(=S)Nc2ccccc2F)o1	-28%	20%	-18%	-16%	?	52%[activator]	-10%	4%
CCOCCCNC(=O)CN1N=C(c2ccc(C)cc2)CCC1=O	1%	·	13%	2%	·	-3%	·	·
CC1CCC(NC(=O)CN(C)S(=O)(=O)c2cnc[nH]2)CC1 (stereo not given)	2%	?	9%	·	17%[46.1 µM]	47%[activator]	·	·
NC(=O)CSc1nnc(CSc2ncccn2)n1-c1ccccc1	-1%	9%[46.1 µM]	-1%	·	3%[46.1 µM]	-12%	·	·
COc1cccc(NC(=O)Cc2nnc(SCC(=O)NC3CCCCC3)n2C)c1	2%	?	19%	23%	4%	-6%	·	·
O=C(Nc1ccc(F)c(Cl)c1)C1CC2CCC1C2 (stereo not given)	·	?	-13%	·	-19%[46.1 µM]	12%	·	·
COc1ccc(C(=O)Nc2nc3ccc(OC)cc3s2)cc1	-5%	·	?	10%	·	28%	·	·
N/C(=N\OCc1ccc([N+](=O)[O-])cc1)c1ccccn1	-3%	?	?	2%	?	?	·	·
CCc1cc2c(cc3c(=O)n(CC(=O)NC(C)c4ccccc4)ncn32)s1 (stereo not given)	·	2%[46.1 µM]	·	·	·	-13%	0.0%	0%
CC1CCC2C(=O)N(c3cc(Cl)ccc3OC(=O)c3ccco3)C(=O)C2C1 (stereo not given)	-4%	7%[46.1 µM]	1%	2%	-8%	37%[activator]	·	·
C=CCn1c(=O)c(C(=O)Nc2ccccc2S(N)(=O)=O)c(O)c2ccccc21	1%	8%	6%	3%	?	5%	·	·
COc1c(O)ccc2c1-c1c3c(cc4c1C(C2)N(C)CC4)OCO3 (stereo not given)	-1%	4%	5%	-2%	-9%	-4%	1.9%	4%
CCC12CN(C(=O)c3ccco3)CC(CC)(CN(C(=O)c3ccco3)C1)C2=O	3%	?	-8%	4%	4%	-22%	·	·
CCOC(=O)c1c2c3c(c(Cl)ccc3[nH]c1=O)C(=O)c1ccccc1-2	-1%	-3%[46.1 µM]	-9%	·	-22%[46.1 µM]	-20%	·	·
O=C(CCNS(=O)(=O)c1cccs1)N1CCN(c2cccc(C(F)(F)F)c2)CC1	-11%	-22%	-17%	·	?	?	·	·
CC1CCCCN1C(=O)COc1ccc2ccc(=O)oc2c1 (stereo not given)	0%	10%[46.1 µM]	2%	?	19%	11%	·	·
COc1ccccc1N(CN1C(=O)c2ccccc2C1=O)C(=O)c1cccnc1	2%	1%&5%	1%	1%	31%	4%	2.1%	7%
COCCNC(=O)CN(C(=O)Cn1nnc2ccccc21)c1ccc(F)c(Cl)c1	11%	27%	5%	3%	19%	10%	-2.0%	-6%
O=C(COc1ccc(Cl)cc1[N+](=O)[O-])N1CCCCCC1	0%	-8%[46.1 µM]	-7%	1%	13%[46.1 µM]	23%	·	·
COC(=O)CN1C(c2ccc(OC)cc2)=Nc2ccc(Cl)cc2C1c1ccccc1 (stereo not given)	-30%	13%	-12%	4%	14%	-37%	-5.0%	-4%
COCCN1C(=O)C(=O)/C(=C(/O)c2ccc(S(=O)(=O)N3CCOCC3)cc2)C1c1ccc(O)cc1 (stereo not given)	3%	3%	-3%	1%	?	7%	·	·
Cc1c(O)ccc2c(CN3CCN(CCO)CC3)cc(=O)oc12	7%	34%	0%	-9%	10%	-17%	-7.7%	2%
Cc1cccc(NC(=O)CSc2nc(=O)n(CCN3CCOCC3)c3c2CCCC3)c1C	·	7%[46.1 µM]	3%	·	17%	-2%	·	·
COC(C(=O)Nc1ccc(NC(=O)C(OC)c2ccccc2)cc1)c1ccccc1 (stereo not given)	-2%	-4%[46.1 µM]	-19%	16%	5%[46.1 µM]	-2%	·	·
CCOc1cccc(C(=O)Nc2ccc3oc(Cc4ccc(Cl)cc4)nc3c2)c1	-24%	?	-3%	4%	?	8.9µM*	-1.2%	0%
